# Bioassay records deposited in PubChem BioAssay by Broad Institute.
# Env fusion inh: HIV envelope-mediated fusion inhibition; HeLa-JRFL Env/CEM21 cell fusion, luciferase; inhibition, % at 12.3 µM; 360,000 tested, 1.1% active;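 active = mean replicate inhibition score of at least 50 and every replicate individually at or above 50; inconclusive = only one of the two criteria met; inactive = mean below 50 and not all replicates reaching 50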;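 also: 0% = plate neutral controls and 100% = maraviroc near 300 nM; one replicate is shown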
# UUG fidelity: modulators of start codon recognition fidelity in yeast. S. cerevisiae UUG-firefly luciferase reporter, luminescence/redox ratio. activity score, % at 18.7 µM. 350,000 tested, 0.13% active. AID 602363;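 active = replicate mean at a twofold rise or more, about +100% in these data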;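 also: firefly luciferase made from a UUG start codon reports start codon fidelity; reporter light over untreated wells divided by growth signal over untreated wells; some hits fall short of that in this replicate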
# The depositor's hits bear a star; ? = inconclusive; [ ] = dose if it differs, or a comment.
Env fusion inh | UUG fidelity | Molecule
-90[16.7 µM] | 38 | C[C@@H]1CN([C@H](C)CO)C(=O)c2cccc(NC(=O)Nc3ccccc3)c2O[C@@H]1CN(C)Cc1ccc(Cl)c(Cl)c1
7[16.7 µM] | -12 | C[C@H]1CN([C@@H](C)CO)C(=O)Cc2cc(NS(=O)(=O)c3ccc(F)cc3)ccc2O[C@@H]1CN(C)Cc1ccccc1
-6[16.7 µM] | -24 | CCCNC(=O)Nc1ccc2c(c1)C(=O)N(C)C[C@H](OC)[C@H](C)CN(CCC)[C@H](C)CO2
1[16.7 µM] | -17 | C[C@H]1CCCCO[C@H](CN(C)C(=O)C2CCCCC2)[C@@H](C)CN([C@@H](C)CO)C(=O)c2cc(NC(=O)Nc3ccc(C(F)(F)F)cc3)ccc2O1
24[16.7 µM] | 4 | O=C(NCC[C@H]1CC[C@@H](NS(=O)(=O)c2ccc(Cl)cc2)[C@@H](CO)O1)c1ccccc1F
9[16.7 µM] | 13 | COc1ccc(S(=O)(=O)N(C)C[C@H]2OCCCC[C@@H](C)Oc3ccc(NS(C)(=O)=O)cc3C(=O)N([C@H](C)CO)C[C@H]2C)cc1
11[16.7 µM] | 1 | COc1ccc(C(=O)Nc2ccc3c(c2)OC[C@@H](C)NC[C@H](C)[C@H](OC)CN(C)C3=O)cc1
2[16.7 µM] | 18 | CCCNC(=O)N1C[C@H](O)COC[C@@H]2O[C@H](CC(=O)N[C@H]3CCN(Cc4ccccc4)C3)CC[C@H]21
-2[16.7 µM] | -18 | Cc1noc(C)c1NC(=O)Nc1ccc2c(c1)C(=O)N([C@H](C)CO)C[C@@H](C)[C@@H](CN(C)C(=O)NC1CCCCC1)O2
-45[16.7 µM] | 9 | COc1cccc(C#Cc2cnc3c(c2)C(=O)N([C@H](C)CO)C[C@@H](C)[C@H](CN(C)C(=O)C2CC2)O3)c1

# (more compounds)
Env fusion inh | UUG fidelity | Molecule
3[16.7 µM] | 2 | CCC(=O)N(C)C[C@@H]1Oc2cc(C3=CCCC3)ccc2S(=O)(=O)N([C@H](C)CO)C[C@H]1C
-7[16.7 µM] | -5 | C[C@H]1CN([C@@H](C)CO)S(=O)(=O)c2ccc(C3=CCCC3)cc2O[C@@H]1CN(C)C(=O)CN(C)C
18[16.7 µM] | -9 | C[C@@H]1CCCCO[C@H](CN(C)S(C)(=O)=O)[C@@H](C)CN([C@H](C)CO)C(=O)c2cc(NC(=O)C3CCCCC3)ccc2O1
-27[16.7 µM] | 11 | CCC(=O)N(C)C[C@H]1Oc2cc(C#C[C@H](C)O)ccc2S(=O)(=O)N([C@H](C)CO)C[C@@H]1C
-4[16.7 µM] | -6 | CCCNC(=O)N[C@@H]1CC[C@@H](CC(=O)N2CCN(C)CC2)O[C@H]1CO
22[16.7 µM] | -7 | C[C@@H]1CN([C@H](C)CO)C(=O)c2cc(-c3cccc(F)c3)cnc2O[C@H]1CN(C)Cc1ccccn1
-26[16.7 µM] | 0 | C[C@@H]1CN([C@H](C)CO)C(=O)c2cc(C#CC(C)(C)O)cnc2O[C@H]1CN(C)C(=O)C1CC1
-20[16.7 µM] | -8 | CCC(=O)N[C@@H]1CC[C@H](CC(=O)NCCN2CCCCC2)O[C@H]1CO
-6[16.7 µM] | -6 | Cc1noc(C)c1NC(=O)N(C)C[C@@H]1OCCCC[C@H](C)Oc2ccc(NC(=O)C3CCCCC3)cc2C(=O)N([C@H](C)CO)C[C@@H]1C
8[16.7 µM] | -2 | CNC[C@@H]1Oc2c(NC(=O)C3CCOCC3)cccc2C(=O)N([C@H](C)CO)C[C@H]1C

# Further compounds
Env fusion inh | UUG fidelity | Molecule
27[16.7 µM] | -3 | O=C(C[C@H]1C=C[C@H](NC(=O)C2CCC2)[C@@H](CO)O1)NCC1CC1
-7[16.7 µM] | -7 | COCc1cn(CC[C@H]2CC[C@@H](NC(=O)c3ccc(F)cc3)[C@H](CO)O2)nn1
6[16.7 µM] | -8 | C[C@H](CO)N1C[C@H](C)[C@@H](CN(C)C(=O)Nc2cccc3ccccc23)OCCCC[C@H](C)Oc2ccc(NC(=O)c3ccccc3)cc2C1=O
-107[16.7 µM] | -7 | C[C@@H]1CCCCO[C@H](CN(C)C(=O)Nc2ccccc2)[C@@H](C)CN([C@@H](C)CO)C(=O)c2cc(NS(=O)(=O)c3ccc(F)cc3)ccc2O1
24[16.7 µM] | -3 | COc1ccc(S(=O)(=O)N(C)C[C@@H]2Oc3cc(C#CC4CCCCC4)ccc3S(=O)(=O)N([C@@H](C)CO)C[C@H]2C)cc1
6[16.7 µM] | -2 | COCC#Cc1ccc2c(c1)O[C@@H](CN(C)S(=O)(=O)c1ccc(F)cc1)[C@H](C)CN([C@@H](C)CO)S2(=O)=O
8[16.7 µM] | -4 | Cc1noc(C)c1NC(=O)NCC[C@@H]1CC[C@H](NC(=O)c2ccncc2)[C@H](CO)O1
9[16.7 µM] | -2 | CCC(=O)Nc1ccc2c(c1)C(=O)N(C)[C@H]1CC[C@H](CC(=O)NCc3ccc(OC)cc3)O[C@@H]1CO2
-3[16.7 µM] | 0 | Cc1ccc(S(=O)(=O)NCC[C@@H]2CC[C@@H](NC(=O)c3ccccn3)[C@@H](CO)O2)cc1
-20[16.7 µM] | 10 | COc1ccc(CNC(=O)C[C@@H]2CC[C@@H]3[C@H](COc4ccc(NC(=O)C5CC5)cc4C(=O)N3C)O2)cc1

# Profiles as entered above. Order of values: Env fusion inh	UUG fidelity
# `C[C@H](CO)N1C[C@H](C)[C@@H](CN(C)C(=O)Nc2cccc3ccccc23)OCCCC[C@H](C)Oc2ccc(NC(=O)c3ccccc3)cc2C1=O` is listed as 6[16.7 µM]	-8
# `C[C@@H]1CCCCO[C@H](CN(C)C(=O)Nc2ccccc2)[C@@H](C)CN([C@@H](C)CO)C(=O)c2cc(NS(=O)(=O)c3ccc(F)cc3)ccc2O1` is listed as -107[16.7 µM]	-7
# `COCc1cn(CC[C@H]2CC[C@@H](NC(=O)c3ccc(F)cc3)[C@H](CO)O2)nn1` is listed as -7[16.7 µM]	-7
# `CCC(=O)Nc1ccc2c(c1)C(=O)N(C)[C@H]1CC[C@H](CC(=O)NCc3ccc(OC)cc3)O[C@@H]1CO2` is listed as 9[16.7 µM]	-2
# `Cc1noc(C)c1NC(=O)NCC[C@@H]1CC[C@H](NC(=O)c2ccncc2)[C@H](CO)O1` is listed as 8[16.7 µM]	-4

# (list continues)
Env fusion inh | UUG fidelity | Molecule
9[16.7 µM] | -3 | C[C@@H]1CCCCO[C@@H](CN(C)S(=O)(=O)c2ccccc2)[C@@H](C)CN([C@H](C)CO)C(=O)c2cc(NC(=O)CCC(F)(F)F)ccc2O1
-13[16.7 µM] | 2 | CNC(=O)C[C@@H]1CC[C@H]2[C@@H](COc3ccc(NS(=O)(=O)c4ccccc4C)cc3C(=O)N2C)O1
25[16.7 µM] | -6 | C[C@@H]1CCCCO[C@@H](CN(C)C(=O)Nc2ccc3c(c2)OCO3)[C@H](C)CN([C@@H](C)CO)C(=O)c2cc(NC(=O)Nc3cccc4ccccc34)ccc2O1
-7[16.7 µM] | -2 | COc1ccc(S(=O)(=O)Nc2ccc3c(c2)C(=O)N([C@@H](C)CO)C[C@H](C)[C@H](CN(C)Cc2ccc(C(=O)O)cc2)O3)cc1
87*[16.7 µM] | 22 | C[C@@H]1CCCCO[C@H](CN(C)C(=O)CCC(F)(F)F)[C@H](C)CN([C@H](C)CO)C(=O)c2cc(NC(=O)CCC(F)(F)F)ccc2O1
1[16.7 µM] | 24 | CO[C@@H]1CN(C)C(=O)c2cc(NC(=O)Cc3ccccc3)ccc2OC[C@H](C)N(CC2CC2)C[C@@H]1C
-5[16.7 µM] | -4 | C[C@H]1CN([C@@H](C)CO)C(=O)c2cccc(NS(=O)(=O)c3ccccc3)c2O[C@@H]1CN(C)S(=O)(=O)c1cn(C)cn1
-13[16.7 µM] | 0 | C[C@@H]1CCCCO[C@H](CN(C)S(=O)(=O)c2ccc(Cl)cc2)[C@H](C)CN([C@@H](C)CO)C(=O)c2cc(NC(=O)Nc3ccc(C(F)(F)F)cc3)ccc2O1
-10[16.7 µM] | -9 | C[C@@H]1CN([C@@H](C)CO)C(=O)c2cc(NC(=O)CCC(F)(F)F)ccc2O[C@H]1CN(C)Cc1ccc2c(c1)OCO2
-2[16.7 µM] | -3 | C[C@@H]1CCCCO[C@H](CN(C)CC2CCCCC2)[C@@H](C)CN([C@H](C)CO)C(=O)c2cc(NC(=O)NC3CCCCC3)ccc2O1

# New compounds follow.
Env fusion inh | UUG fidelity | Molecule
10[16.7 µM] | 5 | CNC(=O)C[C@@H]1CC[C@@H]2[C@@H](COc3ccc(NC(=O)Nc4cccc(F)c4)cc3C(=O)N2C)O1
4[16.7 µM] | 5 | Cc1noc(C)c1NC(=O)Nc1ccc2c(c1)C(=O)N([C@@H](C)CO)C[C@H](C)[C@H](CN(C)Cc1ccc(Cl)c(Cl)c1)OCCCC[C@@H](C)O2
-4[16.7 µM] | 1 | O=C(Cc1ccccn1)N[C@H]1CC[C@@H](CCn2cc(-c3cccnc3)nn2)O[C@@H]1CO
-12[16.7 µM] | 0 | C[C@@H]1CN([C@H](C)CO)S(=O)(=O)c2ccc(C#CC3CC3)cc2O[C@H]1CN(C)C(=O)c1ccccn1
-2[16.7 µM] | 7 | COc1ccc(CN(C)C[C@@H]2OCCCC[C@@H](C)Oc3ccc(NC(=O)Nc4ccc(F)cc4)cc3C(=O)N([C@H](C)CO)C[C@@H]2C)cc1
-28[16.7 µM] | 10 | C[C@H]1CN([C@@H](C)CO)C(=O)c2cc(C3=CCCC3)cnc2O[C@H]1CN(C)Cc1ccc(F)cc1
2[16.7 µM] | 10 | COCC#Cc1cnc2c(c1)C(=O)N([C@H](C)CO)C[C@@H](C)[C@H](CN(C)C(=O)C1CCC1)O2
-17[16.7 µM] | 1 | CN1CCN(C(=O)C[C@H]2C[C@H]3c4cc(NC(=O)Nc5ccc(C(F)(F)F)cc5)ccc4O[C@H]3[C@@H](CO)O2)CC1
18[16.7 µM] | 0 | Cc1cccc(CN(C)C[C@@H]2Oc3ncc(-c4cccc(C(F)(F)F)c4)cc3C(=O)N([C@H](C)CO)C[C@@H]2C)c1
14[16.7 µM] | 9 | COc1ccccc1NC(=O)N(C)C[C@H]1Oc2ncc(C#CCC(C)C)cc2C(=O)N([C@H](C)CO)C[C@H]1C

# Remaining list, next part
Env fusion inh | UUG fidelity | Molecule
5[16.7 µM] | -14 | O=C(N[C@@H]1CC[C@@H](CCn2cc(Cc3ccccc3)nn2)O[C@H]1CO)c1cnccn1
-16[16.7 µM] | 4 | C[C@@H]1CN([C@H](C)CO)C(=O)c2cccc(NC(=O)c3nc4ccccc4s3)c2O[C@H]1CN(C)S(=O)(=O)c1cccs1
28[16.7 µM] | 10 | CCC(=O)N(C)C[C@@H]1Oc2cc(-c3ccccc3C)ccc2S(=O)(=O)N([C@@H](C)CO)C[C@@H]1C
3[16.7 µM] | 1 | C[C@H]1CN([C@@H](C)CO)C(=O)CCCn2nncc2CO[C@H]1CN(C)Cc1ccc2c(c1)OCCN2C
23[16.7 µM] | 3 | CCCC#Cc1cnc2c(c1)C(=O)N([C@@H](C)CO)C[C@@H](C)[C@H](CN(C)Cc1cccnc1)O2
16[16.7 µM] | -6 | Cc1ccc(NC(=O)Nc2ccc3c(c2)C(=O)N(C)[C@@H]2CC[C@@H](CC(=O)O)O[C@H]2CO3)cc1
8[16.7 µM] | 33 | C[C@H](CO)N1C[C@H](C)[C@@H](CN(C)CC2CCOCC2)Oc2ncc(C#Cc3ccc(F)cc3)cc2C1=O
8[16.7 µM] | 1 | O=C(N[C@@H]1CC[C@@H](CC(=O)N2CCc3ccccc3C2)O[C@H]1CO)C1CCOCC1
14[16.7 µM] | -7 | C[C@@H]1CN([C@@H](C)CO)C(=O)c2cccc(NC(=O)Nc3ccc(F)cc3)c2O[C@H]1CN(C)Cc1ccccc1
9[16.7 µM] | -7 | Cc1noc(C)c1S(=O)(=O)Nc1ccc2c(c1)CC(=O)N([C@@H](C)CO)C[C@H](C)[C@H](CN(C)Cc1ccccc1)O2

# Next part
Env fusion inh | UUG fidelity | Molecule
-10[16.7 µM] | -4 | C[C@H](CO)N1C[C@H](C)[C@@H](CN(C)C(=O)NC2CCCC2)Oc2cc(-c3cccnc3)ccc2S1(=O)=O
-14[16.7 µM] | -6 | Cc1noc(C)c1NC(=O)N(C)C[C@@H]1OCCCC[C@@H](C)Oc2ccc(NC(=O)C3CCCCC3)cc2C(=O)N([C@H](C)CO)C[C@@H]1C
15[16.7 µM] | 13 | COc1ccc(-c2cnc3c(c2)C(=O)N([C@@H](C)CO)C[C@@H](C)[C@H](CN(C)C(=O)C2CCOCC2)O3)cc1
-4[16.7 µM] | -14 | O=C(NCC[C@@H]1CC[C@@H](NC(=O)C2CCC2)[C@H](CO)O1)c1cnccn1
-2[16.7 µM] | -2 | CO[C@@H]1CN(C)C(=O)c2cc(NS(=O)(=O)c3ccc(C)cc3)ccc2OC[C@H](C)NC[C@H]1C
-30[16.7 µM] | 1 | COc1ccc(S(=O)(=O)Nc2ccc3c(c2)C(=O)N([C@H](C)CO)C[C@H](C)[C@@H](CN(C)S(=O)(=O)c2ccc(C)cc2)O3)cc1
? | 7 | C[C@H]1CN([C@@H](C)CO)C(=O)c2cc(/C=C/c3ccccc3)cnc2O[C@@H]1CN(C)S(=O)(=O)c1cccs1
-11[16.7 µM] | 7 | C[C@H]1CN([C@@H](C)CO)C(=O)c2cc(NC(=O)NC3CCCCC3)ccc2O[C@H]1CN(C)C(=O)Nc1ccc(F)cc1
-13[16.7 µM] | 15 | COc1ccccc1-c1cn(CC[C@@H]2CC[C@@H](NC(=O)CCN3CCCCC3)[C@@H](CO)O2)nn1
5[16.7 µM] | 11 | C[C@@H]1CN([C@@H](C)CO)C(=O)Cc2cc(NC(=O)Cc3cn(C)c4ccccc34)ccc2O[C@@H]1CN(C)C(=O)Nc1cccc2ccccc12

# These rows are one share of the data. The share of hits here may be higher or lower than overall.
